StopGo FLuc: Primary qHTS Assay for Foot and Mouth Disease Virus Antivirals against NCGC Sytravon and CBC Compound Libraries: Firefly Luciferase Signal | HEK cells with a luciferase reporter of 2A StopGo recoding | Potency, µM (doses to about 57.5 µM), for inactives: at the top dose signal change, negative = less light | actives 0.23% (n = 120,000) | AID 1745856, 2022; active = well fitted falling curve with a large enough effect; inconclusive = small, poorly fitted or top-dose-only effect; inactive = no such curve, though single readings can be large or run the other way; also: nearly all actives have a fitted effect of over 60% in size; overnight with compound
StopGo RLuc: Primary qHTS Assay for Foot and Mouth Disease Virus Antivirals against NCGC Sytravon and CBC Compound Libraries: Renilla Luciferase Signal; actives 0.32% (n = 120,000); AID 1745857, 2022; Potency, µM (highest dose often 57.5 µM), for the others: at the top dose signal change, negative = less light; HEK cells with a luciferase reporter of 2A StopGo recoding; active means well fitted falling curve with a large enough effect; inconclusive means small, poorly fitted or top-dose-only effect; inactive means no such curve, though single readings can be large or run the other way; also: nearly all actives have a fitted effect of over 55% in size; overnight with compound
Active calls of the source: *; & = joins results of further samples; [ ] = dose if it differs, or a comment. % is scaled to controls: 0 for no effect and ±100 for the full control effect; potency is read from the fitted curve at half-maximal effect. The list is partial; count on the stated rates, not on these rows.

`COc1cc(C(=O)Nc2ccc3c(c2)NC(=O)C(C)O3)cc(OC)c1OC` (stereo not given) gave StopGo FLuc 64%[activator] and StopGo RLuc 56%[activator].
`Cc1nnc(SCc2nc(-c3ccc(Cl)cc3)no2)n1-c1ccc(F)cc1` gave StopGo FLuc inconclusive and StopGo RLuc inconclusive.
For CCc1ccc(NC(=O)CCCc2nnc3n(CC(C)C)c(=O)c4sccc4n23)cc1 the results were StopGo FLuc -12% and StopGo RLuc -14%.
For O=C(COC(=O)COc1ccccc1)NC12CC3CC(CC(C3)C1)C2 the results were StopGo FLuc 1% and StopGo RLuc -7%.
`CN1CCN(c2nc3ccccc3nc2NS(=O)(=O)c2ccc(Br)cc2)CC1` gave StopGo FLuc 8% and StopGo RLuc 20%.
For CC(=O)c1cccc(NC(=O)CSc2nnc3ccc(-c4ccc(C)cc4)nn23)c1 the results were StopGo FLuc 1%&-10% and StopGo RLuc 4%&-8%.
`CC(NC(=O)c1[nH]c2ccccc2c1Cl)c1ccc(F)cc1` (stereo not given) gave StopGo FLuc inconclusive and StopGo RLuc inconclusive.
For N#CC1(NC(=O)CSc2nc(-c3cccs3)nc3ccccc23)CCCC1 the results were StopGo FLuc 12% and StopGo RLuc 10%.
CC(C)NC(=O)/C=C/c1ccc([N+](=O)[O-])cc1 was read as StopGo FLuc 94%[activator] and StopGo RLuc -4%.
`CCn1cc(C(=O)NCCc2ccc(Cl)cc2)c(=O)c2cc(S(=O)(=O)N(C)C3CCCCC3)ccc21` gave StopGo FLuc -3% and StopGo RLuc 4%.
CCc1cccc2c(C(=O)CSc3nnnn3C3CC3)c[nH]c12 was read as StopGo FLuc 0% and StopGo RLuc 4%.
`CCc1ccccc1NC(=O)c1cc(S(=O)(=O)NC2CC2)ccc1C` gave StopGo FLuc -1% and StopGo RLuc 0%.
Screening COc1ccc(C)cc1NC(=O)CSc1nc(=O)[nH]c2c1CCCC2 returned StopGo FLuc -22% and StopGo RLuc 2%.
`COc1cccc(C2CC(=O)Nc3nc(N)sc32)c1OCc1ccccc1` (stereo not given) gave StopGo FLuc 0% and StopGo RLuc 18%.
Screening Cc1ccc(NC(=S)NCCC(c2ccccc2)c2ccccc2)cc1 returned StopGo FLuc -27% and StopGo RLuc 109%[activator].
O=S(=O)(NCc1nc2cccnc2n1Cc1ccc(F)cc1)c1ccc(Cl)s1 was read as StopGo FLuc -9% and StopGo RLuc 93%[activator].
Screening CCc1ccc(CNc2ccc3c(c2)ncn3C(C)(C)C)cc1 returned StopGo FLuc 71%[activator] and StopGo RLuc 2%.
For CCOC(=O)c1c(C)n(C)c2ccc(OCC#N)cc12 the results were StopGo FLuc 0% and StopGo RLuc -4%.
`COc1cccc(C(=O)Nc2cccc(OCc3cc(=O)n4cccc(C)c4n3)c2)c1` gave StopGo FLuc -27% and StopGo RLuc -10%.
`O=C(Cn1c(-c2cccs2)cc2cc(F)ccc21)N1CCN(c2ccccc2)CC1` gave StopGo FLuc -9% and StopGo RLuc -12%.

Next section, overlapping the part above by seven compounds.
`COc1cccc(C2CC(=O)Nc3nc(N)sc32)c1OCc1ccccc1` (stereo not given) gave StopGo FLuc 0% and StopGo RLuc 18%.
Screening Cc1ccc(NC(=S)NCCC(c2ccccc2)c2ccccc2)cc1 returned StopGo FLuc -27% and StopGo RLuc 109%[activator].
O=S(=O)(NCc1nc2cccnc2n1Cc1ccc(F)cc1)c1ccc(Cl)s1 was read as StopGo FLuc -9% and StopGo RLuc 93%[activator].
Screening CCc1ccc(CNc2ccc3c(c2)ncn3C(C)(C)C)cc1 returned StopGo FLuc 71%[activator] and StopGo RLuc 2%.
For CCOC(=O)c1c(C)n(C)c2ccc(OCC#N)cc12 the results were StopGo FLuc 0% and StopGo RLuc -4%.
`COc1cccc(C(=O)Nc2cccc(OCc3cc(=O)n4cccc(C)c4n3)c2)c1` gave StopGo FLuc -27% and StopGo RLuc -10%.
`O=C(Cn1c(-c2cccs2)cc2cc(F)ccc21)N1CCN(c2ccccc2)CC1` gave StopGo FLuc -9% and StopGo RLuc -12%.
`CN(C)c1ccc(NC(=O)Cn2c(SCc3ccc(F)cc3)nc3ccncc32)cc1` gave StopGo FLuc 65%[activator] and StopGo RLuc 0%.
For Cc1csc(SCC(=O)Nc2ccccc2C(N)=O)n1 the results were StopGo FLuc 122%[activator] and StopGo RLuc 1%.
CC(C)Oc1ccc(CNC(=O)Cn2nc(N3CCN(c4ccccc4)CC3)ccc2=O)cc1 was read as StopGo FLuc inconclusive and StopGo RLuc -32%.
Screening COc1cc(C2CC(=O)Oc3c2c(=O)[nH]c2ccccc32)cc(OC)c1OC (stereo not given) returned StopGo FLuc -3%&5% and StopGo RLuc 5%&-1%.
`CN(C)c1ccc(NC(=O)c2sc3nc4c(cc3c2N)N2CCC4CC2)cc1` gave StopGo FLuc 49%[activator] and StopGo RLuc -8%.
CCN1CCN(C(c2ccccc2Cl)c2sc3nc(-c4ccco4)nn3c2O)CC1 (stereo not given) was read as StopGo FLuc 18% and StopGo RLuc 41%[activator].
For COc1ccc2cc(CN(C)C(=O)CNC(=O)c3ccc(Cl)cc3Cl)ccc2c1 the results were StopGo FLuc -10% and StopGo RLuc -27%.
`CCOc1ccc(NC(=O)CN2CCN(CC(=O)Nc3ccc(OC)cc3)CC2)cc1` gave StopGo FLuc -20% and StopGo RLuc 1%.
COC(=O)c1cnn(-c2ccc(C(=O)Nc3cc(OC)c(OC)c(OC)c3)cc2)c1N was read as StopGo FLuc 5% and StopGo RLuc 8%.
Screening CNS(=O)(=O)Cc1ccccc1CNC(=O)c1cccc(F)c1 returned StopGo FLuc 6% and StopGo RLuc 21%.
Screening COc1ccc(S(=O)(=O)c2cc3c(cc2NC(=O)c2ccccc2Cl)n(C)c(=O)n3C)cc1 returned StopGo FLuc -11% and StopGo RLuc 46%[activator].
COc1ccc(N2CCN(CCCNC(=O)c3sc4ncccc4c3-n3cccc3)CC2)cc1 was read as StopGo FLuc -19% and StopGo RLuc -1%.
For NCc1nc2cccnc2n1Cc1ccccc1Cl the results were StopGo FLuc -6% and StopGo RLuc -1%.
Screening CCC(C)(Nc1ccccc1)c1nnnn1-c1cccc(C)c1 (stereo not given) returned StopGo FLuc -7% and StopGo RLuc 47%[activator].
Screening Cc1nc2nc(CNC(=O)c3cccc(F)c3)nn2c(C)c1CCC(=O)Nc1ccc(F)cc1 returned StopGo FLuc 2% and StopGo RLuc 7%.
`COc1cccc(CN(C)CC(=O)Nc2cc(C)nn2-c2cc(C)ccc2C)c1` gave StopGo FLuc -10% and StopGo RLuc -3%.
O=C(N/N=C/c1ccccc1F)C1CC1 was read as StopGo FLuc 0% and StopGo RLuc 9%.
For O=C(NCc1ccc(Cl)cc1)NC1COc2ccccc2C1 (stereo not given) the results were StopGo FLuc -23% and StopGo RLuc 7%.
For COc1ccc(NC(=O)C(NS(=O)(=O)c2cccc3nsnc23)C(C)C)cc1 (stereo not given) the results were StopGo FLuc -15% and StopGo RLuc 11%.
Screening CC1CCCCC1OCCN(Cc1cccs1)CC1CCCO1 (stereo not given) returned StopGo FLuc 6% and StopGo RLuc 10%.

Reprinted from the part before: 3 compounds, then new ones.
For O=C(NCc1ccc(Cl)cc1)NC1COc2ccccc2C1 (stereo not given) the results were StopGo FLuc -23% and StopGo RLuc 7%.
For COc1ccc(NC(=O)C(NS(=O)(=O)c2cccc3nsnc23)C(C)C)cc1 (stereo not given) the results were StopGo FLuc -15% and StopGo RLuc 11%.
Screening CC1CCCCC1OCCN(Cc1cccs1)CC1CCCO1 (stereo not given) returned StopGo FLuc 6% and StopGo RLuc 10%.
`COc1ccc(-c2nc3sc(CCNC(=O)c4ccc(C(C)(C)C)cc4)c(C)n3n2)cc1` gave StopGo FLuc 121%[activator] and StopGo RLuc -1%.
O=C(c1ccc(Cl)cc1)N(Cc1ccco1)Cc1ccco1 was read as StopGo FLuc 4% and StopGo RLuc 58%[activator].
CC(Sc1nc2ccccc2n1C)C(=O)NCc1ccc2c(c1)OCO2 (stereo not given) was read as StopGo FLuc 13% and StopGo RLuc 12%.
`Cc1cc(C)c(OCC(=O)Nc2ccccc2N2CCCC2=O)c(C)c1` gave StopGo FLuc 1% and StopGo RLuc 10%.
`COc1ccc(C(C)=O)cc1Br` gave StopGo FLuc 4% and StopGo RLuc -7%.
O=C(COC(=O)CCc1nc2ccccc2s1)Nc1ccc([N+](=O)[O-])cc1C(F)(F)F was read as StopGo FLuc 17% and StopGo RLuc -1%.
Screening COc1ccccc1NC(=O)CC1Sc2ccccc2NC1=O (stereo not given) returned StopGo FLuc 53%[activator] and StopGo RLuc 17%[1.06 µM].
`CC(C)(C)c1ccc2c(c1)N(CC(=O)NCCCN1CCN(c3ccccc3F)CC1)C(=O)CO2` gave StopGo FLuc -20% and StopGo RLuc -1%.
Screening CCOC(=O)C1CCN(C(=O)c2cn(-c3ccccc3)nc2-c2ccc(Br)cc2)CC1 returned StopGo FLuc 5% and StopGo RLuc 37%[activator].
Screening O=C(OCC(=O)N1CCCC1=O)c1cc(=O)c2ccccc2o1 returned StopGo FLuc inconclusive and StopGo RLuc 22%.
Screening COc1ccc(NC(=O)CSc2nc3ccccc3c(=O)n2CCC(=O)NC2CCCCC2)c(OC)c1 returned StopGo FLuc 0% and StopGo RLuc -8%.
Cc1ccc(COc2cccc(CNc3ncn[nH]3)c2)cc1 was read as StopGo FLuc 122%[activator] and StopGo RLuc 4%.
`CCOc1cccc(C2c3c(-c4cc(C)cc(C)c4O)n[nH]c3C(=O)N2Cc2cccnc2)c1` (stereo not given) gave StopGo FLuc 2% and StopGo RLuc 19%.
For Cc1ccccc1NC(=O)Cc1nc(-c2c(N)n(C)c(=O)n(C)c2=O)cs1 the results were StopGo FLuc 11% and StopGo RLuc 2%.
Screening COc1ccccc1CNC(=O)c1ccc2c(c1)N(Cc1cc(C)ccc1C)C(=O)c1ccccc1S2 returned StopGo FLuc -12% and StopGo RLuc -1%.
COc1ccc(NS(=O)(=O)c2cccc(NC(=O)c3[nH]c(C)c(C(C)=O)c3C)c2)cc1 was read as StopGo FLuc 16% and StopGo RLuc 7%.
Screening Cc1cc(C)cc(Oc2coc3cc(OCC(=O)NCc4ccccc4)ccc3c2=O)c1 returned StopGo FLuc -2% and StopGo RLuc 8%.
`O=C(O)CCc1ccc(S(=O)(=O)Nc2cccc(C(=O)O)c2)cc1` gave StopGo FLuc -6% and StopGo RLuc -5%.
`COC(=O)c1c(C)[nH]c(C(=O)OCC2CC2(Cl)Cl)c1C` (stereo not given) gave StopGo FLuc 69%[activator] and StopGo RLuc -8%.
`COc1cccc(NS(=O)(=O)c2ccc3c(c2)CCCN3C(=O)C2CCC2)c1` gave StopGo FLuc inconclusive and StopGo RLuc 0%.
Screening COc1cc(NC(=O)CN2c3ccccc3S(=O)(=O)c3ccccc32)cc(OC)c1 returned StopGo FLuc -21% and StopGo RLuc -11%.
`Cc1c(C(=O)NC(c2ccccc2)c2nccn2C)oc2ccc(F)cc12` (stereo not given) gave StopGo FLuc 143%[activator] and StopGo RLuc -12%.
For CCCCN(C)C(=O)c1cc2cc([N+](=O)[O-])cc(OC)c2oc1=O the results were StopGo FLuc -3% and StopGo RLuc -13%.
Screening COc1ccc(NC(=O)CSc2oc(-c3cccs3)nc2S(=O)(=O)c2ccccc2)c(OC)c1 returned StopGo FLuc -8% and StopGo RLuc 15%.
For COc1cc(OC)c(NC(=O)CCc2c(C)nc3cc(-c4ccccc4OC)nn3c2C)cc1Cl the results were StopGo FLuc -19% and StopGo RLuc 4%.
Cc1nn(C(=O)c2cccc(Cl)c2)c(C)c1S(=O)(=O)N1CCOCC1 was read as StopGo FLuc -16% and StopGo RLuc -1%.
For Cc1ccc(-c2onc(C)c2C)cc1S(=O)(=O)Nc1ccc(Cl)cn1 the results were StopGo FLuc 2% and StopGo RLuc -1%.
`Cc1nnc(NC(=O)CSc2nnc3c(n2)[nH]c2ccccc23)s1` gave StopGo FLuc 39%[activator] and StopGo RLuc 31%[activator].
Screening Fc1cccc(F)c1-c1csc(NCc2ccco2)n1 returned StopGo FLuc 231%[activator] and StopGo RLuc 41%[activator].
`CC(C)C1NC(=O)N(Cc2coc(-c3ccccc3)n2)C1=O` (stereo not given) gave StopGo FLuc 134%[activator] and StopGo RLuc 12%.
`CCc1ccccc1NC(=O)CCl` gave StopGo FLuc -9% and StopGo RLuc -9%[1.06 µM].
For Cc1ccccc1-n1nc(C)c2c1NC(=O)CSC2c1ccc(N(C)C)cc1 (stereo not given) the results were StopGo FLuc -1% and StopGo RLuc 13%.
Screening Cc1ccc(-n2c(=O)c3c(C)c(C(=O)N(C)C)sc3n(CC(=O)N(C)c3ccccc3)c2=O)cc1C returned StopGo FLuc -10% and StopGo RLuc 5%.
For Cc1cccc(CNC(=O)c2oc3c(c2C)-c2nn(Cc4ccccc4Cl)cc2CC3)c1 the results were StopGo FLuc inconclusive and StopGo RLuc inconclusive.
`Cc1ccc(CNC(=O)Cc2c(C)c3c(O)cc(C)cc3oc2=O)cc1` gave StopGo FLuc -4% and StopGo RLuc 3%.

Molecules shown so far that have a nitro group on carbon, in the order listed:
CC(C)NC(=O)/C=C/c1ccc([N+](=O)[O-])cc1 was read as StopGo FLuc 94%[activator] and StopGo RLuc -4%.
O=C(COC(=O)CCc1nc2ccccc2s1)Nc1ccc([N+](=O)[O-])cc1C(F)(F)F was read as StopGo FLuc 17% and StopGo RLuc -1%.
For CCCCN(C)C(=O)c1cc2cc([N+](=O)[O-])cc(OC)c2oc1=O the results were StopGo FLuc -3% and StopGo RLuc -13%.

Assay outcomes (PubChem BioAssay)
